Screening results (PubChem)
LANA-H2B inh = blockers of LANA interaction with H2A/H2B – biochemical, FP readout, HTS, primary screen; cell-free LANA-H2A/H2B peptide, fluorescence polarization; inhibition, % (test concentration not listed); 320,000 compounds, 0.6% hits; AID 2629, 2010; in the data active = inhibition mostly above about 10%, no sharp cut-off; inactive = mostly below about 6.7%;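 also: stock transfer was 7.5 nL into about 10 µL; 0% = median of vehicle wells and 100% = median of positive control wells; one replicate is shown; the record names a cut of 25% in any replicate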
Target sequence (Q9QR71 whole entry, looked up): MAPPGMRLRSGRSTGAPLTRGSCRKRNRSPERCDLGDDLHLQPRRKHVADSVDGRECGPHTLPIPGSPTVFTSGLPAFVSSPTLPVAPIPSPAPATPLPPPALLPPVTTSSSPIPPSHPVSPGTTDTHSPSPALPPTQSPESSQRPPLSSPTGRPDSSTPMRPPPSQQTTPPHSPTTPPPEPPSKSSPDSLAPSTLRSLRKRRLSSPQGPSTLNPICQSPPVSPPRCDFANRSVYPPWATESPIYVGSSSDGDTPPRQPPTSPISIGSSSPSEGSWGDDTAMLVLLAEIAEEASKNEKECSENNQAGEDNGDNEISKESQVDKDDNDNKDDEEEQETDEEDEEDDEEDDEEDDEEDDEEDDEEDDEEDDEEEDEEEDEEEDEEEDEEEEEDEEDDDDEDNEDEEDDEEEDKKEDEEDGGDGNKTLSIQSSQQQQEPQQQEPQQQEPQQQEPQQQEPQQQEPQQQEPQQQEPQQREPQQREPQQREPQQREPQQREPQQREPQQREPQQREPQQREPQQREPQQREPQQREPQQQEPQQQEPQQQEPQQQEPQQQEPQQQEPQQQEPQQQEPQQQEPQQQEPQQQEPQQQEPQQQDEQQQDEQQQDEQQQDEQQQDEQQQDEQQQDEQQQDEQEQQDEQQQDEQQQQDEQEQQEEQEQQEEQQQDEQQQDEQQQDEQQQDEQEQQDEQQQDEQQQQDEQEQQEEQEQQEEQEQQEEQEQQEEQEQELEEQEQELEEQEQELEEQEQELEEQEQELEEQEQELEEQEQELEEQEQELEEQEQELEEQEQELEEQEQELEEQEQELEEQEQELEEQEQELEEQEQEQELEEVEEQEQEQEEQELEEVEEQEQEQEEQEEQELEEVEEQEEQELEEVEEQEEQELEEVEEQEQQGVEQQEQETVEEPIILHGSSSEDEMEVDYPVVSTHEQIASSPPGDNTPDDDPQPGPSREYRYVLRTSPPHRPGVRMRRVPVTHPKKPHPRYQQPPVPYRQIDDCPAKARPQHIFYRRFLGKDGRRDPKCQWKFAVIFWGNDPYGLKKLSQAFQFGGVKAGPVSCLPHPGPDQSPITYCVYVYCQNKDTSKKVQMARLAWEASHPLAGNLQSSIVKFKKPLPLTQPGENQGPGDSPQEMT
Vif A3G = inhibitors of Vif binding to APOBEC3G peptide, primary screen, biochemical, TR-FRET, GST-Vif 1-94, biotin-A3G peptide, dose response retest (AID 1117319); Virion infectivity factor (Human immunodeficiency virus type 1 group M subtype B (isolate …; TR-FRET GST-Vif / biotin-A3G peptide binding; higher % means a stronger effect; test concentration not given here; strong numbers were not always called active; one-dose inhibition, %; IC50 in µM for titrated hits; 260,000 compounds, 0.57% hits;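 active = above the screen mean plus three standard deviations and confirmed in dose response; inconclusive = results disagree or hit not tested in dose response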;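 also: Vif residues 1-94 fused to GST binding biotinylated APOBEC3G peptide 110-148; 0% = full assay without inhibitor and 100% = GST in place of GST-Vif; retest series ran down from 100 µM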
B2AR ag = beta2AR agonists driving receptor internalization, primary screen, cell-based, FAP fluorogen, flow cytometry. Beta-2 adrenergic receptor (Homo sapiens), P07550. response, % (concentration not given with the values). Am2.2-beta2AR cells; reference of the scale not given here. 340,000 compounds, 0.43% hits;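 active = response above a set limit, near 3 SD of response in nonfluorescent compounds, cut at about 42% in these data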;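 also: stock transfer was 100 nL into about 11 µL; a reference agonist was the positive control; negative values mostly stem from fluorescent compounds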
HNF4A DNA FP = change in binding of human HNF4A to DNA, primary screen, biochemical, fluorescence polarization, FITC-DNA; AID 1224865, 2016; 1 h; activity change, % at 10 µM; Hepatocyte nuclear factor 4-alpha (Homo sapiens), P41235; 360,000 compounds, 0.3% hits; in the data active = activity change above about 30%, passing the limit was not always enough;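 also: controls were the assay level and a saturating level of protein; the project sought stronger binding though the title names inhibitors; some compounds called inactive have numbers as strong as hits; positive values seem to mean higher polarization but the record does not say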
ALR H2O2 inh = inhibitors of human ALR sulfhydryl oxidase, primary screen, biochemical, H2O2 detection, HRP-luminol luminescence, single point; FAD-linked sulfhydryl oxidase ALR (Homo sapiens), P55789; purified ALR, DTT oxidation; inhibition, % (no concentration beside the values); 290,000 compounds, 3.8% hits;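 active = mean and each replicate at 75% or more; inconclusive = only one of the two met; inactive = neither met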;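 also: stock transfer was 7.5 nL into about 7.5 µL; 0% = neutral wells and 100% = wells with inactivated enzyme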
Calb FLC = C. albicans growth inhibition with fluconazole, primary screen, CaCi-2 strain, Alamar Blue fluorescence; C. albicans CaCi-2 (fluconazole-resistant clinical isolate) + fluconazole, 48 h; growth inhibition, % (no concentration beside the values); 300,000 compounds, 0.57% hits; AID 1979, 2009;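 active = most replicates above 75%; inconclusive = exactly half above 75%; inactive = most below 75%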;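 also: all wells also contain fluconazole at 8 µg/ml as a sub-toxic cotreatment; 0% = median of DMSO wells and 100% = median of geldanamycin control wells; wells of about 8 µL received 7.5 nL stock; the first replicate is given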
RanGTP-Impb inh = inhibitors of RanGTP-importin-beta interaction, primary screen, biochemical, FRET, CFP-Ran, YFP-importin-beta, homogeneous; AID 2216, 2009; 300,000 compounds, 1.1% hits; inhibition, % (concentration not given with the values); cell-free CFP-Ran/YFP-importin-beta FRET ratio; Ran GTPase (GTP-bound) - importin-beta complex;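 active = most replicates above 15%; inconclusive = exactly half above 15%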;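 also: 0% = DMSO wells and 100% = Ran loaded with GDP instead of GTP; wells of about 40 µL received 100 nL stock; the first replicate is given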
An asterisk follows results filed as active; ? = inconclusive; . = no result given. Compounds as they come. About 6.3% of those tested had a hit in this group.

Every second line gives: LANA-H2B inh, Vif A3G, B2AR ag, HNF4A DNA FP, ALR H2O2 inh, Calb FLC, RanGTP-Impb inh
COC(=O)c1ccc(Cn2c(CN3CCOCC3)nc3ccccc3c2=O)o1
  0.0, -3.5%, -10.0, 2.2, 3.8, 7.2, -1.3
COc1ccc(C(=O)c2nc3c(n2O)CCCC3)cc1OC
  -3.4, 5.0%, -3.0, -2.3, -0.2, 2.1, 2.4
COCCc1ncc(CN2CCCC(C(=O)Nc3cccc(-c4cccc(C)c4)c3)C2)cn1 (centres undefined)
  -0.2, ., 1.6, 9.3, -6.9, 13.8, 4.4
COCc1nnc(NC(=O)c2ccc(NC(C)=O)cc2)s1
  1.0, 23.2%, -0.4, -0.7, ., -0.1, 0.4
CC1CCN(S(=O)(=O)c2ccc3c(c2)CCN3C(=O)CCC(=O)O)CC1
  0.4, 4.4%, -1.4, -2.2, 4.2, 2.7, -1.0
COc1cnn(-c2cccc(C(F)(F)F)c2)c(=O)c1Cl
  -1.9, ., 0.5, 0.6, -4.0, -4.2, 0.2
O=C(c1ccco1)N1CCN(Cc2ccccc2F)CC1
  -2.9, -0.4%, -6.6, -1.1, -14.5, 18.4, 0.0
CCOCc1nnc(NC(=O)CCS(=O)(=O)Cc2ccccc2)s1
  -0.6, -0.3%, 3.3, -0.9, -3.3, -4.8, 9.4
NC(=NCCc1ccccc1)NS(=O)(=O)c1ccccc1F
  5.1, -2.2%, 5.8, -3.2, -10.9, 2.2, -3.2
CS(=O)(=O)N1CC(C(=O)NN)Oc2ccc(Cl)cc21 (centres undefined)
  0.7, 10.5%, -1.2, -1.9, 9.1, -11.7, -2.4
CC(=O)N1CCSc2ccc(S(=O)(=O)Nc3ccccc3C)cc21
  1.7, 9.5%, 3.0, 0.5, 3.2, 9.3, 0.0
O=C(NCc1ccccc1Cl)c1ccc2c(=O)n(CCCN3CCCC3=O)c(=S)[nH]c2c1
  -3.4, -6.1%, 6.5, 3.1, -2.8, 3.6, ?
O=C(N/C(=C/c1ccc([N+](=O)[O-])cc1)C(=O)N1CCOCC1)c1ccco1
  14.5*, -4.5%, -0.6, 0.4, -9.1, -0.2, -6.3
CCOc1cc(/C=C2\CCn3c2nc2cc(Cl)ccc2c3=O)ccc1O
  4.4, -0.7%, -2.5, 3.6, -14.3, 1.0, -0.5
O=C(NCC1CC1)c1onc(CSc2nc3ccccc3[nH]2)c1C(=O)NCC1CC1
  -5.1, ., -8.4, 1.2, ., 1.4, 2.8
CCc1nnc(NC(=O)CSc2nnc(-c3c[nH]c4ccccc34)n2C)s1
  3.1, -0.8%, 4.1, -3.0, -3.6, -3.2, 5.0
CCC(OC(=O)CN1C(=O)c2ccccc2C1=O)C(=O)NC1CCCC1 (centres undefined)
  -1.9, ., -2.5, 0.4, -3.3, 4.6, -1.3
Cc1ccc(Cl)c2sc(N3CCN(C(=O)c4ccco4)CC3)nc12
  -5.5, 3.7%, 8.8, 5.8, -0.3, -1.8, ?
Clc1cccc(OCc2nc(-c3ccncc3)no2)c1
  -3.9, 4.0%, -0.7, 3.1, -2.9, 16.5, 1.1
COc1ccccc1CC(=O)Nc1cc(S(=O)(=O)N2CCOCC2)ccc1N1CCOCC1
  -0.3, ., -1.2, 3.0, -26.9, ., .
O=C(COC(=O)CCc1nc2ccccc2n1-c1ccccc1)Nc1ccc(N2CCCCC2)cc1
  ., ., -12.8, -1.6, ., -1.9, 0.2
Cc1onc(-c2c(Cl)cccc2Cl)c1C(=O)NCCN1CCOCC1
  -1.4, -1.0%, 5.7, 0.2, -1.7, 7.9, 3.1
CCOC(=O)CN1C(=O)C(O)=C(C(C)=O)C1c1ccccc1 (centres undefined)
  -4.0, -1.5%, 3.5, -4.8, ., -2.6, 0.9
O=S(=O)(c1ccc2[nH]ccc2c1)N1CCCCCC1
  1.4, ., 3.2, 2.8, 1.9, -1.8, 7.1
CC(C)N(Cc1nccn1C)C(=O)CC1C(=O)NCCN1Cc1ccccc1C(F)(F)F (centres undefined)
  13.3*, -0.4%, -4.6, -2.4, -4.0, 1.9, -3.3
Cc1sc2ncnc(NCC3CCCO3)c2c1C (centres undefined)
  -4.8, -4.8%, 12.7, -1.1, -7.1, 0.3, -2.5
CCOc1ccc(NC(=O)CN(C)C(=O)Cc2c[nH]c3ccccc23)cc1OCC
  4.4, 3.7%, 10.9, 5.0, -10.6, ., 7.0
COc1ccc(C(C)NC(=S)NC2CCCCC2)cc1OC (centres undefined)
  -5.3, -3.9%, 7.7, -1.9, -3.5, -6.7, -2.0
Cc1nc2ccccn2c(=O)c1NC(=O)c1cccc2ccccc12
  -2.4, 11.8%, 1.1, 1.4, -7.2, 3.2, -1.2
COc1cc(Cl)c(C)cc1NC(=O)COC(=O)C(NS(=O)(=O)c1ccc(Cl)cc1)C(C)O (centres undefined)
  -3.1, ., -0.5, -3.3, -4.0, -14.5, 0.5

2 entries from above, with tabs:
SMILES	LANA-H2B inh	Vif A3G	B2AR ag	HNF4A DNA FP	ALR H2O2 inh	Calb FLC	RanGTP-Impb inh
COC(=O)c1ccc(Cn2c(CN3CCOCC3)nc3ccccc3c2=O)o1	0.0	-3.5%	-10.0	2.2	3.8	7.2	-1.3
CCOCc1nnc(NC(=O)CCS(=O)(=O)Cc2ccccc2)s1	-0.6	-0.3%	3.3	-0.9	-3.3	-4.8	9.4

Next structures:
Every second line gives: LANA-H2B inh, Vif A3G, B2AR ag, HNF4A DNA FP, ALR H2O2 inh, Calb FLC, RanGTP-Impb inh
Cc1cc2cc(CN(C(=O)C3CC3)C3CCCC3)c3nnnn3c2cc1C
  1.3, 1.0%, -11.1, 6.8, -25.2, -0.2, -4.2
Nc1nc(=O)n(C2CC(O)C(CO)O2)cc1F (centres undefined)
  ., -1.4%, -7.0, 3.4, ., ., .
Cc1cccc(N2C(=O)CC(Sc3nc(-c4ccccc4)c4cc(Cl)ccc4n3)C2=O)c1 (centres undefined)
  0.8, 14.3%, -3.2, -2.9, -8.4, 10.3, -0.2
CC(C)c1ccc(OCC(=O)NC2=NCCS2)cc1
  15.3, 18.5%, 5.4, -2.1, ., -17.1, 3.9
N#Cc1c(C(F)(F)F)cc(-c2ccc(Cl)cc2)nc1SCC(=O)O
  -2.7, ., 15.3, 1.3, 46.4, 3.9, -1.3
COc1ccccc1NNC(=O)C(O)(c1ccccc1OC)c1ccccc1OC
  1.0, ., 4.0, 0.4, 54.2, 14.6, -0.9
O=C(NCCNC(=O)c1cccc(O)c1)c1cccc(O)c1
  -0.6, 0.0%, 1.5, -0.4, 6.3, 1.0, 2.6
O=C(O)COCC(=O)NCc1csc2ccccc12
  -2.4, -2.1%, 4.2, -1.7, 46.8, -0.5, 2.1
Cc1cc(C)c(C)c(OCC(=O)NCC2CCCO2)c1 (centres undefined)
  -3.2, 31.7%, 6.8, -3.3, -18.6, -2.5, -0.4
COC(=O)c1c(NC(=O)CN2C(=O)C(=O)N(C(C)C)C2=O)sc(C)c1C
  -10.0, ., 6.4, -0.6, ., ., .
Cc1ccc(-n2c(=O)c3ccccc3n(CC(=O)NCc3ccco3)c2=O)cc1
  -6.3, 1.8%, 3.0, -7.4, -3.0, 3.0, 4.0
Cc1nn(C)c(C)c1C1Nc2ccccc2C(=O)N1O (centres undefined)
  -9.0, 8.4%, -3.1, 0.7, -2.5, 8.9, 3.7
CC(C)CCNC(=S)Nc1ccc([N+](=O)[O-])cc1
  1.5, ., -7.2, 1.2, 3.3, -45.9, 4.7
Cc1ccnc(NC(=O)CCC2CCCCC2)c1
  -1.2, 7.1%, -2.6, 4.0, 36.0, -5.5, -0.7
CC(=O)N1CCC2(CC1)NC(=O)N(c1ccccc1)N2
  3.8, ., -0.2, -1.6, 98.2*, 6.5, 3.6
CC(C)n1c(CCCO)nc2ccccc21
  3.4, -2.7%, 0.8, -5.2, -26.9, -6.9, 2.8
CC(C)COP(=O)(c1ccc(N(C)C)cc1)C(O)c1ccccn1 (centres undefined)
  -5.0, 2.2%, -3.5, -2.1, 3.0, -0.2, 1.0
COc1ccccc1C1SCCN1S(C)(=O)=O (centres undefined)
  -0.7, -1.6%, 0.3, -0.1, -1.4, -1.6, 4.0
Cn1c(CCNC(=O)c2ccco2)nc2cc(NS(=O)(=O)c3ccccc3)ccc21
  11.7, 18.0%, -3.4, -3.8, -22.7, 1.0, 0.0
NS(=O)(=O)c1ccc(CNC(=O)Cn2nc(C(F)F)cc2C(F)F)cc1
  ., -10.4%, -2.2, -1.1, 0.9, ., .
COc1ccc(C2N=C(N)N=C(N)N2c2ccccc2)cc1OC (centres undefined)
  -6.2, ?, -18.0, -2.5, -3.8, 0.3, 4.0
Cc1nn(C)cc1/C=N/NC(=O)c1sc2ccccc2c1Cl
  4.4, 12.0%, -18.1, 1.6, -4.0, 1.3, -3.6
C=CCn1c2ccccc2c2nnc(SCN3C(=O)c4ccccc4C3=O)nc21
  -0.8, -16.2%, 8.6, 2.2, 10.5, 2.7, 1.1
O=C(O)/C=C/c1ccc(-n2ccnc2)cc1
  -4.1, ., 0.1, -1.1, -15.7, -1.0, 1.7
COc1ccc(CCNC(=O)C(=O)NCC2OCCN2S(=O)(=O)c2ccccc2)cc1OC (centres undefined)
  6.9, ., -1.3, -1.1, ., -2.2, 12.9
Cc1cc(=O)[nH]c(N=N/C(=N/Nc2ccc(O)cc2)c2ccccc2)n1
  10.0, 13.5%, -13.8, -0.2, -4.0, -8.4, -2.6
CSc1ccc(S(=O)(=O)Nc2ccc(S(=O)(=O)Nc3ccc(C)cc3)cc2)cc1
  0.8, 2.2%, -1.0, 6.0, -1.2, 59.1, 2.2
C[C@@H]1CN(Cc2nc(-c3cnccn3)no2)C[C@H](C)O1
  6.3, ., -1.3, 2.5, ., -0.1, -2.1
C=CCn1c(SCc2ccccc2)nc2scc(-c3ccc(C)o3)c2c1=O
  3.2, -3.9%, 0.1, 0.6, -3.1, 20.3, 2.0
COc1ccc(/C=N/NC(=O)c2cccc([N+](=O)[O-])c2)cc1OS(=O)(=O)c1ccccc1
  1.2, 2.7%, 11.2, -2.7, -4.9, -5.7, -0.6
O=C(CCC1CCCC1)Nc1ccc(OCC(=O)N2CCOCC2)cc1
  1.4, 2.0%, 0.0, -3.8, ., -13.3, 3.8
Cn1c(-c2ccc3c(c2)OCO3)cc(=O)c2ccccc21
  -1.5, 11.4%, -16.8, -0.8, -6.7, 10.7, 3.3
